# Screens deposited in PubChem by Broad Institute.
# A1 apoptosis 2 = A1 inhibitors via caspase activation, primary screen, cell-based, luminescence, HTS, two replicates | AID 2465, 2010 | caspase activation, % (concentration not given with the values) | 24,000 tested, under 10 active | MEF A1-2A-BIM cells, caspase-Glo luminescence, 3 h; percent of clofoctol response, DMSO zero; in the data active = caspase activation above about 5.9%;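 also: wells of about 30 µL received 50 nL stock; the first replicate is given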
#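 Material: A1-2A-BIM-expressing MEF cells. Buffer or medium: RPMI-1640 plus 10% FBS. Incubation: cells settled overnight, compound exposure 3 h at 37 °C, 5% CO2. Signal: Caspase-Glo 3/7 luminescence, 1 h at room temperature.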
# * hit, by the source's call.
SMILES,A1 apoptosis 2
C[C@H]1CN([C@@H](C)CO)C(=O)Cc2cc(NS(=O)(=O)c3cn(C)cn3)ccc2O[C@@H]1CN(C)S(=O)(=O)c1cccs1,-0.5
C[C@H](CO)N1C[C@H](C)[C@@H](CN(C)C(=O)Nc2ccccc2)OCCCC[C@H](C)Oc2ccc(NS(=O)(=O)c3cn(C)cn3)cc2C1=O,-0.2
Cc1ccc(S(=O)(=O)Nc2ccc3c(c2)C(=O)N([C@@H](C)CO)C[C@H](C)[C@@H](CN(C)S(=O)(=O)c2ccc(F)cc2)OCCCC[C@@H](C)O3)cc1,-0.2
C[C@@H]1CN([C@@H](C)CO)C(=O)c2cc(NC(=O)Cc3ccccc3)ccc2O[C@@H](C)CCCCO[C@@H]1CN(C)S(=O)(=O)c1cccs1,-1.7
COc1ccc(NC(=O)Nc2ccc3c(c2)C(=O)N([C@H](C)CO)C[C@H](C)[C@@H](CN(C)Cc2ccncc2)OCCCC[C@H](C)O3)cc1,-0.3
Cc1noc(C)c1NC(=O)Nc1ccc2c(c1)C(=O)N([C@H](C)CO)C[C@@H](C)[C@H](CN(C)Cc1ccc(C(F)(F)F)cc1)OCCCC[C@@H](C)O2,2.2
COc1ccc(NC(=O)Nc2ccc3c(c2)C(=O)N([C@H](C)CO)C[C@H](C)[C@H](CN(C)Cc2ccc(C(=O)Nc4ccccc4N)cc2)O3)cc1,1.8
Cc1noc(C)c1S(=O)(=O)N(C)C[C@H]1OCCCC[C@@H](C)Oc2ccc(NC(=O)CCCN(C)C)cc2C(=O)N([C@H](C)CO)C[C@@H]1C,0.0
C[C@@H]1CN([C@@H](C)CO)C(=O)c2cc(NC(=O)Nc3ccccc3)ccc2O[C@H]1CN(C)S(=O)(=O)c1ccccc1,-0.1
C[C@@H]1CCCCO[C@H](CN(C)Cc2ccc(C(F)(F)F)cc2)[C@H](C)CN([C@H](C)CO)C(=O)c2cc(NC(=O)Nc3cccc4ccccc34)ccc2O1,0.8
C[C@@H]1CN([C@@H](C)CO)C(=O)Cc2cc(NS(=O)(=O)c3ccc(Cl)cc3)ccc2O[C@@H]1CN(C)CC1CC1,-2.2
COc1ccc(NC(=O)Nc2ccc3c(c2)CC(=O)N([C@H](C)CO)C[C@@H](C)[C@H](CN(C)Cc2ccccc2)O3)cc1,0.9
C[C@@H]1CN([C@H](C)CO)C(=O)c2cc(NC(=O)Cn3cnnn3)ccc2O[C@H]1CN(C)C(=O)NC1CCCCC1,0.2
C[C@@H]1CN([C@@H](C)CO)C(=O)CCCn2cc(nn2)CO[C@H]1CN(C)S(=O)(=O)c1cccc(F)c1,-0.2
COCCOC(=O)N1C(=O)[C@@]2(c3ccccc31)[C@H](C(N)=O)[C@H]1C(=O)O[C@H](c3ccccc3)[C@H](c3ccccc3)N1[C@@H]2c1ccc(OCCO)cc1,-1.2
COc1ccc(S(=O)(=O)Nc2ccc3c(c2)C(=O)N([C@@H](C)CO)C[C@@H](C)[C@H](CN(C)S(=O)(=O)c2cccs2)O3)cc1,0.6
C[C@H]1CCCCO[C@H](CN(C)C)[C@@H](C)CN([C@@H](C)CO)C(=O)c2cc(NC(=O)Nc3ccccc3)ccc2O1,-0.1
C[C@@H]1CCCCO[C@@H](CN(C)Cc2ccncc2)[C@@H](C)CN([C@@H](C)CO)C(=O)c2cc(NC(=O)CCCN(C)C)ccc2O1,0.0
C[C@@H]1CN([C@@H](C)CO)C(=O)c2cc(NS(=O)(=O)c3ccc(F)cc3)ccc2O[C@@H](C)CCCCO[C@@H]1CN(C)Cc1ccccc1,-1.3
CC(C)NC(=O)N(C)C[C@H]1OCCCC[C@H](C)Oc2ccc(NC(=O)Nc3ccc(C(F)(F)F)cc3)cc2C(=O)N([C@H](C)CO)C[C@H]1C,1.3
C[C@H]1CN([C@@H](C)CO)C(=O)Cc2cc(NS(=O)(=O)c3cn(C)cn3)ccc2O[C@H]1CN(C)Cc1ccc(Oc2ccccc2)cc1,0.0
C[C@@H]1CCCCO[C@@H](CN(C)S(=O)(=O)c2ccc(Cl)cc2)[C@H](C)CN([C@@H](C)CO)C(=O)c2cc(NS(=O)(=O)c3cccs3)ccc2O1,-1.3
C[C@@H]1CN([C@@H](C)CO)C(=O)Cc2cc(NC(=O)Cn3cnnn3)ccc2O[C@H]1CN(C)Cc1ccc2c(c1)OCO2,0.0
Cc1ccc(S(=O)(=O)N(C)C[C@H]2Oc3ccc(NC(=O)Cn4cnnn4)cc3C(=O)N([C@@H](C)CO)C[C@@H]2C)cc1,-0.5
C[C@@H]1CN([C@H](C)CO)C(=O)CCCn2cc(nn2)CO[C@H]1CN(C)C(=O)Nc1ccc(N2CCN(C)CC2)cc1,0.4
CNC[C@H]1Oc2ccc(NC(=O)C3CCCCC3)cc2C(=O)N([C@@H](C)CO)C[C@H]1C,2.7
Cc1ccc(S(=O)(=O)Nc2cccc3c2O[C@H](CN(C)Cc2ccc(-c4ccccc4)cc2)[C@H](C)CN([C@H](C)CO)C3=O)cc1,-0.4
Cc1ccc(S(=O)(=O)N(C)C[C@@H]2Oc3ccc(NC(=O)Nc4cccc5ccccc45)cc3C(=O)N([C@H](C)CO)C[C@H]2C)cc1,0.3
CC(C)NC(=O)N(C)C[C@@H]1Oc2ccc(NC(=O)C3CC3)cc2C(=O)N([C@H](C)CO)C[C@@H]1C,0.5
C[C@@H]1CN([C@H](C)CO)C(=O)c2cc(NC(=O)Nc3ccc(F)cc3)ccc2O[C@@H]1CN(C)Cc1ccncc1,0.3
C[C@@H]1CCCCO[C@@H](CN(C)C(=O)Nc2ccc(F)cc2)[C@H](C)CN([C@@H](C)CO)C(=O)c2cc(NC(=O)CCC(F)(F)F)ccc2O1,-0.4
CC(C)NC(=O)N(C)C[C@@H]1Oc2ccc(NC(=O)CCN3CCOCC3)cc2C(=O)N([C@H](C)CO)C[C@H]1C,0.3
C=CCCN(CC#C[C@H]1Oc2ccccc2S(=O)(=O)N2CCC[C@@H]12)S(=O)(=O)c1ccc(C)cc1,-0.3
COc1ccc(S(=O)(=O)N(C)C[C@@H]2Oc3c(NC(=O)c4cc(C)nn4C)cccc3C(=O)N([C@H](C)CO)C[C@@H]2C)cc1,-0.4
CC(C)NC(=O)Nc1ccc2c(c1)C(=O)N([C@H](C)CO)C[C@@H](C)[C@H](CN(C)C(=O)Nc1cccc3ccccc13)O2,-1.1
C[C@H]1CN([C@@H](C)CO)C(=O)c2cccc(NC(=O)c3ccncc3)c2O[C@H]1CN(C)Cc1ccc(-c2ccccc2)cc1,2.2
C[C@@H]1CCCCO[C@@H](CN(C)Cc2ccc(C(=O)O)cc2)[C@@H](C)CN([C@@H](C)CO)C(=O)c2cc(NS(=O)(=O)c3ccccc3)ccc2O1,-0.6
C[C@H]1CN([C@@H](C)CO)C(=O)c2cc(NC(=O)CCCN(C)C)ccc2O[C@@H]1CN(C)S(C)(=O)=O,0.8
COc1ccc(NC(=O)N(C)C[C@H]2Oc3ccc(NC(=O)Cc4ccccc4)cc3CC(=O)N([C@H](C)CO)C[C@@H]2C)cc1,-0.8
COc1ccc(CN(C)C[C@@H]2Oc3ccc(NC(=O)C4CC4)cc3CC(=O)N([C@H](C)CO)C[C@@H]2C)cc1,-0.1
C[C@H](CO)N1C[C@H](C)[C@@H](CN(C)S(=O)(=O)c2ccccc2)OCc2cn(nn2)CCCC1=O,0.3
C[C@@H]1CN([C@H](C)CO)C(=O)c2cc(N(C)C)ccc2O[C@@H](C)CCCCO[C@@H]1CN(C)C(=O)CCC(F)(F)F,0.1
C[C@@H]1CN([C@H](C)CO)C(=O)c2cc(N(C)C)ccc2O[C@H]1CN(C)S(=O)(=O)c1cccs1,1.4
C[C@@H]1CN([C@H](C)CO)C(=O)c2cccc(NC(=O)C3CC3)c2O[C@@H]1CN(C)C(=O)Nc1ccccc1,-1.1
Cc1noc(C)c1S(=O)(=O)N(C)C[C@H]1Oc2ccc(NC(=O)Cc3cn(C)c4ccccc34)cc2CC(=O)N([C@H](C)CO)C[C@@H]1C,-0.6
CC(C)COC(=O)N(C)C[C@H]1OCc2cn(nn2)CCCC(=O)N([C@H](C)CO)C[C@@H]1C,0.5
C[C@H](CO)N1C[C@H](C)[C@@H](CN(C)C(=O)Nc2cccc3ccccc23)Oc2ccc(NC(=O)NC3CCCCC3)cc2CC1=O,-1.5
CC(C)NC(=O)N(C)C[C@@H]1Oc2ccc(NC(=O)CCCN(C)C)cc2C(=O)N([C@H](C)CO)C[C@H]1C,-1.1

# For convenience, two of the compounds above:
SMILES,A1 apoptosis 2
C[C@@H]1CN([C@H](C)CO)C(=O)c2cccc(NC(=O)C3CC3)c2O[C@@H]1CN(C)C(=O)Nc1ccccc1,-1.1
Cc1noc(C)c1S(=O)(=O)N(C)C[C@H]1Oc2ccc(NC(=O)Cc3cn(C)c4ccccc34)cc2CC(=O)N([C@H](C)CO)C[C@@H]1C,-0.6

# The results go on:
SMILES,A1 apoptosis 2
C[C@@H]1CCCCO[C@H](CN(C)C(=O)Nc2ccccc2)[C@@H](C)CN([C@@H](C)CO)C(=O)c2cc(NC(=O)CCCN(C)C)ccc2O1,0.9
CC(C)NC(=O)Nc1ccc2c(c1)C(=O)N([C@H](C)CO)C[C@@H](C)[C@H](CN(C)C(=O)Nc1ccccc1)O2,0.4
C[C@H]1CN([C@@H](C)CO)C(=O)Cc2cc(NS(=O)(=O)c3cn(C)cn3)ccc2O[C@H]1CN(C)Cc1ccncc1,-1.3
C[C@@H]1CN([C@H](C)CO)C(=O)c2cccc(NC(=O)c3cnccn3)c2O[C@@H]1CN(C)Cc1ccc(C(F)(F)F)cc1,-1.0
C[C@@H]1CN([C@H](C)CO)C(=O)c2cc(N(C)C)ccc2O[C@@H](C)CCCCO[C@@H]1CN(C)C(=O)Nc1ccccc1,0.1
C[C@H](CO)N1C[C@H](C)[C@@H](CN(C)C(=O)Nc2ccc3c(c2)OCO3)Oc2ccc(NC(=O)Cc3ccccc3)cc2C1=O,0.3
CCCCN(CCCC)c1ccc(/C=N/NC(=O)CCCCC(=O)NO)cc1,1.2
CC(C)NC(=O)Nc1ccc2c(c1)C(=O)N([C@@H](C)CO)C[C@@H](C)[C@@H](CN(C)C(=O)Nc1ccc3c(c1)OCO3)OCCCC[C@H](C)O2,0.6
C[C@@H]1CN([C@H](C)CO)C(=O)c2cccc(NC(=O)c3nc4ccccc4s3)c2O[C@@H]1CN(C)C(=O)Nc1ccc2c(c1)OCO2,0.4
CC1(C)COC(CCC/C=N/NC(=O)CCCCC(=O)NO)OC1,0.7
C[C@@H]1CCCCO[C@@H](CN(C)C(=O)c2ccccc2)[C@H](C)CN([C@H](C)CO)C(=O)c2cc(N(C)C)ccc2O1,1.9
C[C@H](CO)N1C[C@H](C)[C@H](CN(C)C)Oc2ccc(NC(=O)C3CCCCC3)cc2C1=O,-0.7

# An excerpt of these results, with tabs.
mol	A1 apoptosis 2
CCCCN(CCCC)c1ccc(/C=N/NC(=O)CCCCC(=O)NO)cc1	1.2
CC(C)NC(=O)Nc1ccc2c(c1)C(=O)N([C@@H](C)CO)C[C@@H](C)[C@@H](CN(C)C(=O)Nc1ccc3c(c1)OCO3)OCCCC[C@H](C)O2	0.6
C[C@@H]1CN([C@H](C)CO)C(=O)c2cccc(NC(=O)c3nc4ccccc4s3)c2O[C@@H]1CN(C)C(=O)Nc1ccc2c(c1)OCO2	0.4

# Other records
SMILES,A1 apoptosis 2
C[C@@H]1CN([C@H](C)CO)C(=O)Cc2cc(NC(=O)CCC(F)(F)F)ccc2O[C@H]1CN(C)CC1CCCCC1,1.0
Cc1noc(C)c1NC(=O)Nc1ccc2c(c1)C(=O)N([C@H](C)CO)C[C@@H](C)[C@H](CN(C)S(C)(=O)=O)O2,-1.5
NC(=O)COc1ccc(/C=N/NC(=O)CCCCC(=O)NO)cc1,0.9
CNC[C@@H]1OCCCC[C@@H](C)Oc2ccc(NC(=O)Nc3ccc(F)cc3)cc2C(=O)N([C@@H](C)CO)C[C@H]1C,1.3
COc1cc2c(cc1OC)CN(C(=O)[C@@H]1[C@H]3C(=O)O[C@H](c4ccccc4)[C@H](c4ccccc4)N3[C@H](c3ccc(OCCO)cc3)[C@@]13C(=O)Nc1ccc(C#CC4(O)CCCCCC4)cc13)CC2,-0.4
C[C@H](CO)N1C[C@H](C)[C@H](CN(C)C(=O)Nc2ccc(C(F)(F)F)cc2)Oc2c(NC(=O)Nc3ccc(F)cc3)cccc2C1=O,-0.5
C[C@@H]1CN([C@H](C)CO)C(=O)c2cc(NC(=O)Nc3ccccc3)ccc2O[C@@H](C)CCCCO[C@@H]1CN(C)S(=O)(=O)c1ccccc1,-0.3
CC(C)NC(=O)N(C)C[C@@H]1OCc2cn(nn2)CCCC(=O)N([C@@H](C)CO)C[C@H]1C,0.3
C[C@@H]1CN([C@@H](C)CO)C(=O)c2cc(NC(=O)NC3CCCCC3)ccc2O[C@@H](C)CCCCO[C@H]1CN(C)CC1CCCCC1,-0.3
C[C@@H]1CN([C@H](C)CO)C(=O)c2cc(NS(=O)(=O)c3ccc(Cl)cc3)ccc2O[C@@H]1CN(C)C(=O)Nc1ccc2c(c1)OCO2,2.0
CC(C)NC(=O)N(C)C[C@H]1OCCCC[C@@H](C)Oc2ccc(NC(=O)Cc3ccccc3)cc2C(=O)N([C@@H](C)CO)C[C@@H]1C,-1.4

# Compounds shown so far containing a Cl atom (three):
SMILES,A1 apoptosis 2
C[C@@H]1CN([C@@H](C)CO)C(=O)Cc2cc(NS(=O)(=O)c3ccc(Cl)cc3)ccc2O[C@@H]1CN(C)CC1CC1,-2.2
C[C@@H]1CCCCO[C@@H](CN(C)S(=O)(=O)c2ccc(Cl)cc2)[C@H](C)CN([C@@H](C)CO)C(=O)c2cc(NS(=O)(=O)c3cccs3)ccc2O1,-1.3
C[C@@H]1CN([C@H](C)CO)C(=O)c2cc(NS(=O)(=O)c3ccc(Cl)cc3)ccc2O[C@@H]1CN(C)C(=O)Nc1ccc2c(c1)OCO2,2.0

# The list is partial (hit frequency here may not be typical).
